Screening results as filed in PubChem.
KCNK3 inh: human KCNK3 channel inhibition, primary screen. O14649. 0.84% of 340,000 active. B-score at 10 µM. AID 602410. CHO-KCNK3 thallium flux, FluxOR fluorescence; hits give low values;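 active = B-score under library mean minus 4 SD, starting fluorescence ratio at most library mean plus 5 SD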;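 note: more negative B-score means stronger inhibition of thallium flux through KCNK3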
RGS4 pot: RGS4 potentiation or activation | HEK293 M3R/inducible RGS4, carbachol calcium flux Fluo4; hits give low values | B-score at 10 µM | 0.92% of 310,000 active | AID 463111;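 active = B-score of the integrated calcium signal more than 4 SD below the library mean, with starting fluorescence not abnormally high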;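 note: negative B-score means reduced calcium response which marks RGS4 activation or potentiation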
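Test system: HEK293 cells with stable M3R and inducible RGS4; also added: carbachol at ECmax as muscarinic agonist stimulus; schedule: dye loading 30 min 37 °C, buffer rest 30 min RT; technique: kinetic calcium fluorescence imaging with Fluo4-AM dye, 2 µM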
RGS4 inh: inhibitors of human RGS4. P49798. 0.45% of 310,000 active. HEK293 M3R/RGS4 inducible, Fluo-4 calcium flux; hits give high values; triggered by carbachol at its EC20. B-score at 10 µM;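 active = B-score, a plate-corrected calcium signal, over three deviations above library mean, with baseline fluorescence within five deviations of library mean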;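 note: RGS4 expression induced by doxycycline in cells with stable M3 receptor; B-score is computed from the integrated fluorescence ratio over baseline after carbachol; higher B-score means a larger calcium signal and so more RGS4 inhibition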
Target sequence (P49798 whole entry, looked up): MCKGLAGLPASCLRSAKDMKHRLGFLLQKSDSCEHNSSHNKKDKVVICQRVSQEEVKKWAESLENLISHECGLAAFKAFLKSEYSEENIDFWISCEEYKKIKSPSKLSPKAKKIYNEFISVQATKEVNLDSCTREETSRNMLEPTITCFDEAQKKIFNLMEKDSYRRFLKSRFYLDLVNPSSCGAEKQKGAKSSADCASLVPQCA
MrgX1 PAM: allosterically activates human MrgX1 receptor signaling | Q96LB2 | MrgX1-HEK293, Fluo-4 calcium flux, FDSS; hits give high values | B-score at 10 µM | 0.63% of 310,000 active | AID 588675;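 active = plate-corrected calcium response at least 3 library SD above typical, normal starting fluorescence, not activating the receptor alone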;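 note: compound read alongside a low EC10 to EC30 dose of BAM8-22 agonist; peak minus trough fluorescence over baseline measured at the second addition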
KCNQ1 inh: blocks the human KCNQ1 potassium channel; P51787; CHO-K1 KCNQ1, FluxOR thallium flux fluorescence; hits give high values; B-score at 10 µM; 1.3% of 310,000 active;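 active = compounds whose thallium flux B-score, printed positive for inhibition, exceeds three library SD while starting fluorescence stays within three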;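 note: channel opened by potassium depolarization with thallium stimulus after 20 min compound exposure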
Target sequence (P51787 whole entry, looked up): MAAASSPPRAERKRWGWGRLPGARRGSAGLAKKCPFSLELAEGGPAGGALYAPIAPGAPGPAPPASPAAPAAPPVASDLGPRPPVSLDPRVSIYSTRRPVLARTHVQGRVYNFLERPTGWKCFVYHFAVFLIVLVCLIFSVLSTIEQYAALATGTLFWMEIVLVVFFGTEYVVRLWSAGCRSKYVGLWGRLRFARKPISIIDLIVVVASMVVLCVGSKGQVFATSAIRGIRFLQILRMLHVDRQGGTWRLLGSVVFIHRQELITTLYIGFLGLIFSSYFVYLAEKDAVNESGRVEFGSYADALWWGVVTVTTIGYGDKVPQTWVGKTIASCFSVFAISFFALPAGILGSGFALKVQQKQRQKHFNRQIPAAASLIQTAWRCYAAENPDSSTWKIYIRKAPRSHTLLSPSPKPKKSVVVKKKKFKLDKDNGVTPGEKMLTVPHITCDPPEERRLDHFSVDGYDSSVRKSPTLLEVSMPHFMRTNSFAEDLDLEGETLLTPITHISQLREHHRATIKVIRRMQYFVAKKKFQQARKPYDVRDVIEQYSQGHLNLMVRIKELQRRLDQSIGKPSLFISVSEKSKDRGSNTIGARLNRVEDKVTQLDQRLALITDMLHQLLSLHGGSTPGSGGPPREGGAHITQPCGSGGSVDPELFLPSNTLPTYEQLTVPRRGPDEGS
ANO1 activ: activators or potentiators of mouse TMEM16A chloride channel. Q8BHY3. HEK293 TMEM16A/YFP-H148Q/I152L, iodide quench fluorescence; hits give low values. B-score at 10 µM. 0.3% of 340,000 active. AID 623877;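 active = fluorescence-ratio B-score plate-corrected deviation score at least 3 library SD below zero, with starting fluorescence score within 5 deviations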;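 note: channel opened by trigger with iodide after compound preincubation; score built on the fluorescence ratio of max minus min over baseline; more negative score means more quench and so TMEM16A activation or potentiation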
TMEM16A inh: inhibitors of mouse TMEM16A calcium-activated chloride channel | normalized B-score (activity score, 25-100; higher = stronger inhibition) at 10 µM | 1.2% of 310,000 active | HEK293 TMEM16A/YFP iodide influx fluorescence, ionomycin;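 active = ratio plate-corrected score three or more library SD toward inhibition, starting fluorescence score within five deviations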;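 note: score derived from kinetic fluorescence span divided by baseline fluorescence per well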
hERG rescue: shields human hERG channel from block by proarrhythmic agents; CHO-hERG, FluxOR thallium flux, dofetilide IC70 present; activation (rescue from dofetilide block), less the hit threshold, % at 10 µM; Q12809; 0.51% of 310,000 active;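 active = activation above the mean of controls blocked by dofetilide plus 5 SD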;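 note: thallium influx through hERG after potassium depolarization seen as dye fluorescence rise; in these data hits start at about 4.7%; inactives centre near -7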
KCNQ1 pot: potentiates or activates the human KCNQ1 potassium channel. 0.35% of 310,000 active. P51787. B-score at 10 µM. CHO-K1 KCNQ1, thallium flux FluxOR fluorescence; hits give high values;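 active = fluorescence ratio B-score, a plate-corrected score, at least three library SD, with initial intensity B-score within 5 SD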
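Doses: Single concentration per compound, DMSO matched to controls | Test system: KCNQ1-transfected CHO-K1 cells | Timing: 90 min dye loading and 20 min compound exposure, both at room temperature | Measured by: Kinetic FluxOR thallium fluorescence, 10-s 1-Hz baseline, 110-s post-stimulus read | Medium: Assay buffer with matched DMSO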
MrgX1 agonist: agonists of human MrgX1 receptor | 0.44% of 310,000 active | Q96LB2 | MrgX1-HEK293 cells, Fluo-4 calcium fluorescence, agonist mode; hits give high values | B-score at 10 µM;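 active = calcium response B-score plate-corrected fluorescence ratio at least 3 library SD, with starting fluorescence B-score inside 5 SD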
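times = overnight plating, then 30 min 37 °C plus 30 min room-temperature dye loading | assay system = stable human MrgX1 HEK293 cell line | input = fifteen thousand cells per well | signal = kinetic calcium dye fluorescence, Fluo-4 NW | dosing = compound delivered in addition one of three | read-out = B-scored fluorescence response ratio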
* marks the source's active call; other numbers are inactive results; i = inactive; / = not tested or not shown. A portion of the library (hit frequency here may not be typical).

molecule | KCNK3 inh | MrgX1 PAM | KCNQ1 inh | ANO1 activ | RGS4 inh | RGS4 pot | TMEM16A inh | hERG rescue | KCNQ1 pot | MrgX1 agonist
Cc1ccc(-c2noc(CSc3nnnn3C3CCCCC3)n2)cc1 | i | i | i | i | i | i | 100* | -7 | i | i
Oc1cccc(-c2nc3c4c(ncn3n2)-c2ccccc2CC42CCCC2)c1 | i | i | i | i | i | i | i | -14 | i | i
Cc1ccc(NC2CCCN(C(=O)c3ccc(F)cc3)C2)cc1C (stereo not given) | i | i | i | i | i | i | i | -8 | i | i
O=C(Nc1ccc(C(F)(F)F)cc1)c1cc(-c2cccnc2)nc2ccc(Br)cc12 | i | i | i | i | i | i | i | -11 | i | i
CCOC(=O)[C@@H]1[C@H]2COc3ccccc3[C@H]2N2C(=O)N(c3cccc(F)c3)C(=O)[C@]12C | i | i | i | i | i | i | i | -9 | i | i
CSc1ccccc1NC(=O)COc1ccc(Cl)cc1C | i | i | i | i | i | i | i | -6 | i | i
O=C(N/N=C/c1ccc(C(=O)O)cc1)C1=NNC(c2ccccc2)(c2ccccc2)C1 | i | i | i | i | i | i | i | -11 | i | i
COc1ccc(-n2cccc2/C=C2\C(=N)N3N=C(C(C)C)SC3=NC2=O)cc1 | i | i | i | i | i | i | i | -9 | i | i
COCc1ccc(C(=O)N2CCCC(Nc3ccc(C(C)C)cc3)C2)o1 (stereo not given) | i | i | i | i | i | i | i | -15 | i | i
CCN(CC)c1ccc(C(=O)N2CCN(Cc3ccccc3)CC2)cc1 | i | i | i | i | i | i | i | -5 | i | i
COc1ccccc1Nc1nc(-c2sc(NC(=O)C(C)(C)C)nc2C)cs1 | i | i | i | i | i | i | i | -24 | i | i
Cc1nc(N2CCN(Cc3ccc(Cl)cc3)CC2)c2oc3ccccc3c2n1 | i | i | i | i | i | i | i | -7 | i | i
CCN(CC)S(=O)(=O)c1ccc(C)c(NC(=O)/C=C/c2cccs2)c1 | i | i | i | i | i | i | i | -10 | i | i
CCOC(=O)c1cc2sccc2n1Cc1ccc(C#N)cc1 | i | i | i | i | i | i | i | -1 | i | i
Cc1cc2oc(C(=O)N(Cc3ccc(N(C)C)cc3)CC3CCCO3)c(C)c2cc1C (stereo not given) | i | i | i | i | i | i | i | -2 | i | i
Cc1ccccc1CSCC(=O)N1CCN(c2ccccc2)CC1 | i | i | i | i | i | i | i | -9 | i | i
CCOC(=O)C(=NC(C)(C)C)NNc1cc(Cl)ccc1Cl | i | i | i | i | i | i | i | 3 | i | i
O=C(c1c[nH]c(C(=O)N2CCN(c3ccccc3F)CC2)c1)c1cccc(Cl)c1Cl | i | / | i | i | i | i | / | -20 | i | /
Cc1nn(-c2ccccc2)c(Cl)c1/C=C/C(=O)c1ccccc1 | i | i | i | i | i | i | i | -12 | i | i
CCC1CCCCN1c1nc2c(C=O)c(C)nn2c2ccccc12 (stereo not given) | i | i | i | i | i | i | i | -14 | i | i
CCN(CC)C(=O)/C(=C\c1ccc(Br)cc1)NC(=O)c1ccccc1OC | i | i | i | i | i | i | i | -4 | i | i
C=CCOc1cccc(C(=O)N2CCCC(Nc3ccc(F)cc3)C2)c1 (stereo not given) | i | i | i | i | i | i | i | -9 | i | i
Cc1cccc(/C=N/NC(=O)c2ccccc2OCc2cccc(Br)c2)n1 | i | i | i | i | i | i | i | -11 | i | i
O=C(COc1ccc(Cl)cc1Cl)N/N=C/c1ccccn1 | i | i | i | i | i | i | i | -1 | i | i
Cc1onc(-c2ccccc2Cl)c1C(=O)NC(=S)NCCc1ccccc1 | i | i | i | i | i | i | i | -10 | i | i
CCOC(=O)C(C)Sc1ncc(OC)c(Sc2ccc(Cl)cc2)n1 (stereo not given) | i | i | i | i | i | i | i | -12 | i | i
CCN(CC)c1ccc(/C=C2/SC(=O)N(C(C)C)C2=O)o1 | i | / | i | i | i | i | / | -34 | i | /
Cc1cc(OCc2nc(-c3cccs3)no2)cc(C)c1Cl | i | i | i | i | i | i | i | -11 | i | i
O=C(Nc1ccc(Br)c2cccnc12)c1ccc(Cn2cc([N+](=O)[O-])cn2)o1 | i | i | i | i | i | i | i | -4 | i | i
CN(C)c1ccc(C(CNC(=O)c2ccc(C#N)cc2)c2c[nH]c3ccccc23)cc1 (stereo not given) | i | i | i | i | i | i | i | -14 | i | i
CCCCCCSc1ccc(-c2nc3ccc(C)cn3c2NC2CCCCC2)cc1 | i | i | i | i | i | i | i | -6 | i | i
Cc1cc(/C=C2\C(=N)N3N=C(c4ccco4)SC3=NC2=O)c(C)n1Cc1ccccc1 | i | i | i | i | i | i | i | -4 | 12* | i
CCOC(=O)[C@H]1[C@H]2COc3ccc(Br)cc3[C@@H]2N2C(=O)N(c3ccc(F)cc3)C(=O)[C@@]12C | i | / | / | i | / | / | / | / | / | /

Arranged by length of the SMILES (ascending): three of the compounds above
molecule | KCNK3 inh | MrgX1 PAM | KCNQ1 inh | ANO1 activ | RGS4 inh | RGS4 pot | TMEM16A inh | hERG rescue | KCNQ1 pot | MrgX1 agonist
CCC1CCCCN1c1nc2c(C=O)c(C)nn2c2ccccc12 (stereo not given) | i | i | i | i | i | i | i | -14 | i | i
Cc1onc(-c2ccccc2Cl)c1C(=O)NC(=S)NCCc1ccccc1 | i | i | i | i | i | i | i | -10 | i | i
COc1ccccc1Nc1nc(-c2sc(NC(=O)C(C)(C)C)nc2C)cs1 | i | i | i | i | i | i | i | -24 | i | i

Another view of some results above.
CCC1CCCCN1c1nc2c(C=O)c(C)nn2c2ccccc12 (stereo not given)
  KCNK3 inh: i; MrgX1 PAM: i; KCNQ1 inh: i; ANO1 activ: i; RGS4 inh: i; RGS4 pot: i; TMEM16A inh: i; hERG rescue: -14; KCNQ1 pot: i; MrgX1 agonist: i
CCN(CC)C(=O)/C(=C\c1ccc(Br)cc1)NC(=O)c1ccccc1OC
  KCNK3 inh: i; MrgX1 PAM: i; KCNQ1 inh: i; ANO1 activ: i; RGS4 inh: i; RGS4 pot: i; TMEM16A inh: i; hERG rescue: -4; KCNQ1 pot: i; MrgX1 agonist: i

Look-ups from above.
For hERG rescue, Oc1cccc(-c2nc3c4c(ncn3n2)-c2ccccc2CC42CCCC2)c1 has -14
For hERG rescue, CCCCCCSc1ccc(-c2nc3ccc(C)cn3c2NC2CCCCC2)cc1 has -6
For hERG rescue, Cc1ccc(-c2noc(CSc3nnnn3C3CCCCC3)n2)cc1 has -7
For hERG rescue, Cc1nn(-c2ccccc2)c(Cl)c1/C=C/C(=O)c1ccccc1 has -12
For hERG rescue, O=C(Nc1ccc(C(F)(F)F)cc1)c1cc(-c2cccnc2)nc2ccc(Br)cc12 has -11
For hERG rescue, CN(C)c1ccc(C(CNC(=O)c2ccc(C#N)cc2)c2c[nH]c3ccccc23)cc1 (stereo not given) has -14

Nothing new here: entries from further up.
molecule | KCNK3 inh | MrgX1 PAM | KCNQ1 inh | ANO1 activ | RGS4 inh | RGS4 pot | TMEM16A inh | hERG rescue | KCNQ1 pot | MrgX1 agonist
CCCCCCSc1ccc(-c2nc3ccc(C)cn3c2NC2CCCCC2)cc1 | i | i | i | i | i | i | i | -6 | i | i
Cc1cc(/C=C2\C(=N)N3N=C(c4ccco4)SC3=NC2=O)c(C)n1Cc1ccccc1 | i | i | i | i | i | i | i | -4 | 12* | i
CCOC(=O)[C@H]1[C@H]2COc3ccc(Br)cc3[C@@H]2N2C(=O)N(c3ccc(F)cc3)C(=O)[C@@]12C | i | / | / | i | / | / | / | / | / | /
